2A Renilla: lowers the Renilla signal of an FMDV 2A StopGo reporter | HEK cells with a luciferase reporter of 2A StopGo recoding | Potency, µM (highest dose often 57.5 µM), without a hit: at the highest dose signal change, negative = less light | 0.32% of 120,000 active | AID 1745857; active means well fitted falling curve with a large enough effect; inconclusive means small, poorly fitted or top-dose-only effect; inactive means no such curve, though single readings can be large or run the other way; further: nearly all actives have a fitted effect of over 55% in size; overnight with compound
StopGo FLuc: lowers the firefly signal of an FMDV 2A StopGo reporter; HEK cells with a luciferase reporter of 2A StopGo recoding; 0.23% of 120,000 active; AID 1745856; Potency, µM (highest dose often 57.5 µM), inactives show at the top dose signal change, negative = less light; active = well fitted falling curve with a large enough effect; inconclusive = small, poorly fitted or top-dose-only effect; inactive = no such curve, though single readings can be large or run the other way; further: nearly all actives have a fitted effect of over 60% in size; overnight with compound
* hit, by the source's call; ? = inconclusive; & = joins results of further samples; [ ] = dose if it differs, or a comment. On the % scale 0 is the no-effect control and ±100 the full control effect; potency means the concentration at half of the fitted maximal effect. An excerpt; the hit share may differ from the screen's.

Each structure is followed by: 2A Renilla | StopGo FLuc
> CCCn1c(=O)c2ccccc2n(CC(=O)N(CC)c2cccc(C)c2)c1=O
  -1.3% | 15.8%
> O=C(O)c1cc(Cl)ccc1I
  7.8% | 20.6%
> N#CC1=C(N)OC2=C(C(=O)CC(c3ccccc3)C2)C1c1ccc(Br)cc1 (centres undefined)
  39.5%[activator] | -4.5%
> CC(C)C(NC(=O)c1cnn(C)c1)c1ccc(F)cc1 (centres undefined)
  9.3% | -5.8%
> O=C(Nc1ccc2nc(SCCOc3ccccc3Cl)sc2c1)c1cccs1
  -5.2% | ?
> O=S(=O)(c1ccccc1Br)N1CCNCC1
  -2.3% | -2.4%
> Brc1n[nH]c(Br)n1
  -14.2% | 9.3%
> CCCCNS(=O)(=O)c1cccc(NC(=O)c2cccc3cccnc23)c1
  77.9%[activator] | -12.2%
> CCc1nnc(NC(=O)CSc2nc3c([nH]c4ccccc43)c(=O)n2-c2ccc(Cl)cc2)s1
  -2.7% | -0.1%
> CC(C)(C)C(=O)/C(C#N)=C\c1cn[nH]c1-c1ccccc1
  7.0% | -1.8%
> COc1ccc(C2C=C(c3ccccc3)Nc3nc(NC(=O)/C=C/c4ccccc4OC)nn32)cc1 (centres undefined)
  8.0% | 45.6%[activator]
> Cc1cccc(-n2nnnc2SCc2nc(N)c3ccccc3n2)c1
  9.6% | 55.6%[activator]
> CC(C)OC(=O)/C(C#N)=C\c1ccc(O)c(Br)c1
  ? | -2.2%
> CCN(CC(=O)NC(=O)NC1CC1)C(C)c1ccc(C#N)cc1 (centres undefined)
  8.9% | -7.6%
> Cc1cc(=O)n(Cc2ccc(Br)cc2F)c2c1c(C)nn2-c1ccccc1
  -17.7% | -21.7%
> O=C(CCc1c[nH]c2ccccc12)OCC(=O)c1ccccc1
  -9.2% | 8.7%
> O=c1c2sc3ccccc3c2n(Cc2cccc(F)c2)c(=O)n1CCc1ccccc1
  5.4% | 184.2%[activator]
> O=C(CSc1cn(CC(=O)N2CCOCC2)c2ccccc12)Nc1ccccc1
  -7.6%&1.4% | 22.9%&10.4%
> CSc1ccc(CN2C(=O)CN(S(C)(=O)=O)CC2(C)C(=O)NCc2ccc(Cl)cc2)cc1 (centres undefined)
  105.5%[activator] | -5.6%
> CN1C(=O)C2(SCC(=O)N2c2ccc(F)cc2)c2ccccc21 (centres undefined)
  -1.0% | -1.8%

Full records, looked up by structure. Order of values: 2A Renilla, StopGo FLuc
Listed for COc1ccc(C2C=C(c3ccccc3)Nc3nc(NC(=O)/C=C/c4ccccc4OC)nn32)cc1 (centres undefined) → 8.0%, 45.6%[activator]
Listed for O=S(=O)(c1ccccc1Br)N1CCNCC1 → -2.3%, -2.4%
Listed for O=c1c2sc3ccccc3c2n(Cc2cccc(F)c2)c(=O)n1CCc1ccccc1 → 5.4%, 184.2%[activator]
Listed for O=C(O)c1cc(Cl)ccc1I → 7.8%, 20.6%
Listed for Brc1n[nH]c(Br)n1 → -14.2%, 9.3%

(listing goes on)
Each structure is followed by: 2A Renilla | StopGo FLuc
> COc1cc(/C=C/c2nc(C#N)c(NCCCN(C)C)o2)cc(OC)c1OC
  34.8% | 51.6%[activator]
> O=C(Nc1ccc2ccc(=O)oc2c1)C1=Cc2ccccc2OC=C1
  2.8% | -3.9%
> Nc1nccnc1C(=O)NCc1cc(Br)ccc1F
  2.4% | 14.9%
> CS(=O)(=O)c1ccc(Cl)c(NC(=O)Cn2cc(C(F)(F)F)cc(Cl)c2=O)c1
  -7.0% | -5.5%
> CC(C)Cn1c(SCC(=O)Nc2nccs2)nnc1-c1ccco1
  22.1% | 13.7%
> CCc1ccc2oc(=O)cc(CN3CCN(CC(=O)NC4CCCC4)CC3)c2c1
  5.6% | -2.9%
> CNC(=O)c1ccc(NC(=O)CSCc2csc(-c3ccc(F)cc3)n2)cc1
  ? | ?
> N#Cc1ccccc1CNc1ccc(F)c(F)c1F
  0.0% | 0.0%
> Cc1cc(Cl)ccc1OC(=O)/C(C#N)=C/c1ccc(Cl)cc1
  9.0% | 12.3%
> C[N+](C)(C)CC1CCC1
  -12.8% | -1.6%
> COc1ccc(Cl)cc1C(=O)Nc1sc2c(c1C(N)=O)CCCC2
  4.7% | 5.0%
> Cc1ccc(C)c(/C=C/c2nc3ccccc3s2)c1
  -13.8%[1.06 µM] | 0.0%
> COc1ccc(C2=NN(CC(=O)NCCc3ccccc3)C(=O)CC2)cc1
  -4.0% | -4.2%
> COc1ccc(C)cc1NC(=O)c1ccc(=O)n(Cc2ccccc2)c1
  8.3% | 2.6%
> CCc1ccc2oc(-c3ccc(NC(=O)c4ccc(OC)c(Br)c4)cc3)nc2c1
  -1.3% | 95.7%[activator]
> COc1ccc(C(=O)Oc2ccc(C(c3c(C)[nH][nH]c3=O)c3c(C)[nH][nH]c3=O)cc2OC)cc1
  -12.9% | -13.4%
> CC(NC(=O)C(C)(C)C)C1CC1 (centres undefined)
  9.3% | 17.7%
> COc1ccc(S(=O)(=O)N2CCN(C(=O)C3=Cc4cc(Cl)ccc4OC3)CC2)cc1OC
  ? | ?
> CCOc1ccc(-n2c(=O)c3c4c(sc3n(Cc3cccc(Cl)c3)c2=O)CCCC4)cc1
  1.9% | -7.5%
> CCc1ccccc1NC(=O)C(=O)NCCc1sc(-c2cccc(C)c2)nc1C
  6.4% | 75.4%[activator]
> CC(=O)c1ccc(NC2=NS(=O)(=O)c3ccccc32)cc1
  9.9% | 21.7%
> CCCCn1c(=O)n(CC(=O)Nc2cccc(C(C)=O)c2)c(=O)c2c1ncn2Cc1ccco1
  -4.1% | -7.4%
> CSCCCNC(=S)Nc1cc(F)ccc1C
  47.0%[activator] | 8.4%
> Cc1ccc(NC(=O)c2cn(-c3ccccc3)nc2-c2ccccc2)cc1
  56.4%[activator] | 0.0%
> COc1ccc(-c2nc3cccc(C)n3c2Nc2ccc3c(c2)OCCO3)cc1
  5.9% | 178.1%[activator]
> COc1ccc(-n2nc3c(N4CCC(C(=O)NCCc5ccccc5)CC4)nnc(C)c3c2C)cc1
  -5.1% | -3.4%
> CC(OC(=O)c1cc2ccccc2o1)C(=O)NC1(C#N)CCCCC1 (centres undefined)
  -1.8%[1.06 µM] | 23.4%
> N[C@H](C(=O)O)c1ccc(O)cc1
  -9.0%[23.8 µM] | -15.0%[27 µM]
> Cn1c(=O)oc2cc(S(=O)(=O)Nc3cccc(C(=O)O)c3)ccc21
  -8.2% | -6.8%
> COC(=O)c1ccc(C(=O)NCC(C)C)cc1
  4.8% | 43.6%[activator]
> COc1ccc(C)cc1NC(=O)NCCn1nnc2cc(S(=O)(=O)N(C)C)ccc21
  3.6% | 3.3%
> C=C[C@@]1(C)CC(=O)[C@]2(O)[C@@]3(C)[C@@H](O)CCC(C)(C)[C@@H]3[C@H](O)[C@H](OC(C)=O)[C@@]2(C)O1
  -14.3% | -12.1%
> Cc1cccc(NC(=S)NCCO)c1
  7.3% | -1.2%
> CCN(CC)CC(=O)Nc1c(C)cccc1C(=O)OC
  -11.6% | -17.6%
> O=C(Nc1ccccc1)C1CCCO1 (centres undefined)
  -12.1% | 3.1%
> CN(C)S(=O)(=O)c1ccc(C(=O)NCCSc2c(-c3ccc(Cl)cc3)[nH]c3ccccc23)cc1
  -2.7% | -24.8%
> COc1cc(O)c(C(=O)c2ccccc2)cc1S(=O)(=O)O
  -8.0% | -12.6%[11.5 µM]
> Cc1cccc(N2CCN(S(=O)(=O)c3ccc(F)c(C(=O)Nc4ccc(C(C)C)cc4)c3)CC2)c1C
  -6.4% | -8.4%
> Cc1ccc(C)c(Nc2ncnc3sccc23)c1
  -24.6% | 23.1%
> C=CCSc1nc2c(c(=O)[nH]c(=O)n2C)n1CCC
  -10.2% | -13.7%
> COc1ccc(-c2nc(S(=O)(=O)c3ccc(F)cc3)c(N3CCOCC3)o2)cc1
  -5.5% | 1.8%
> O=C(CCc1c[nH]c2ccccc12)NCC(F)(F)F
  11.8% | 13.1%
> CC(OC(=O)c1nn(C)c(=O)c2ccccc12)C(=O)N1CC(=O)Nc2ccccc21 (centres undefined)
  -6.4% | -3.4%
> O=S(=O)(c1ccccc1)c1nnn2c1nc(NC1CCCCCC1)c1sccc12
  8.8% | -16.2%
> Cc1ccccc1CNCCSc1nnnn1-c1ccccc1
  -6.4% | 0.8%
> N#Cc1nc(-c2ccccc2Cl)oc1N1CCOCC1
  38.8%[activator] | 65.8%[activator]
> CN(Cc1ccc2c(c1)OCO2)C(=O)CCc1ncc(-c2ccc(F)cc2)o1
  15.8% | 66.7%[activator]
> Cc1cc(S(=O)(=O)C(CNC(=O)c2ccc(F)c(F)c2)c2cccs2)ccc1F (centres undefined)
  -10.2% | -1.0%
> Cc1cc(C)c2c(CC(=O)Nc3ccc(C)c(C)c3)coc2c1
  5.5% | 21.5%
> CN(C)CCN(Cc1ccco1)C(=O)c1oc2ccccc2c1NC(=O)c1ccccc1
  0.0% | -7.6%
> CCOc1ccccc1-c1noc(CSc2nnc(-c3ccccc3)n2-c2ccc(F)cc2)n1
  -9.2% | -17.4%
> COc1ccccc1C(=O)N1CCN(c2oc(-c3ccccc3)nc2C#N)CC1
  -19.6% | -20.3%
> Cc1ccc(-c2nc(C)sc2CC(=O)NCC23CC4CC(CC(C4)C2)C3)cc1
  45.4%[activator] | 2.7%
> Cc1ccc(Cc2c(C)nc3nc(SCC(=O)NC4CCC(C)CC4)nn3c2C)cc1 (centres undefined)
  -15.9% | -8.6%
> CCOCCCNC(=O)c1cnc2sc(N3CCCCCC3)nn2c1=O
  -8.5% | -4.9%
> Cc1ccc(C)c(C(=O)COC(=O)c2cc(C)nc3ccccc23)c1
  -5.2% | 6.2%
> Cc1c(C(=O)N(Cc2ccccc2F)C2CCS(=O)(=O)C2)oc2ccc(F)cc12 (centres undefined)
  -10.3% | -9.8%
> CCOC(=O)COc1cc(C)c(Cl)cc1C(=O)c1ccn2nc(-c3ccc(OC)cc3)cc2n1
  4.4% | 3.3%
> CCOC(=O)c1cccc(NC(=O)c2ccc(-n3cnc(NC(=O)C(C)C)c3)cc2)c1
  34.3%[activator] | 52.0%[activator]
> CC(C)c1ccc(NC(=O)CSc2ncnc3ccccc23)cc1
  1.2% | 0.0%

Going on with the list.
Each structure is followed by: 2A Renilla | StopGo FLuc
> O=C(O)C/C(=C/c1ccc(-c2ccccc2)cc1)c1nc2ccccc2s1
  -5.4%[1.06 µM] | -7.9%
> O=C(NCC(c1cccs1)S(=O)(=O)c1cccs1)c1ccccc1 (centres undefined)
  -15.5% | 0.0%
> O=C(CCCn1c(=O)[nH]c2ccsc2c1=O)N1CCN(c2ccc(Cl)cc2)CC1
  -11.1% | -22.8%
> CC(C)(C)c1[nH]nc2c1[C@@H](c1ccccc1C(F)(F)F)C(C#N)=C(N)O2
  -2.1% | -21.3%
> COc1cc(/C=C(/C#N)C(=O)OC(C)C)cc(Cl)c1O
  -7.8% | 19.8%
> Cc1cc(C)c2c(n1)SCC(=O)N2CC(=O)Nc1ccccc1C
  -14.4% | -16.0%
> CC(C)(C)C(=O)Nc1cccc(NCC(=O)NC2(C#N)CCCC2)c1
  8.3% | ?
> Cc1cc(C)cc(Nc2nc3ccccc3nc2NS(=O)(=O)c2cccs2)c1
  -16.4% | 2.9%
> COc1ccc(S(=O)(=O)c2cn(Cc3ccccc3)c3ccc(OC)cc3c2=O)cc1
  -6.2% | -1.7%
> CC(NC(=O)C(=O)Nc1c2c(nn1-c1ccccc1)CSC2)c1ccccc1 (centres undefined)
  -16.7% | -21.6%
> CN(CC(=O)Nc1ccccc1C(F)(F)F)Cc1cc(Cl)cc2c1OCOC2
  -11.4% | -11.7%
> CCOC(=O)c1c(C)c(C(=O)NCCc2ccc(OC)cc2)c(C)n1CC
  3.4% | -13.2%
> CCCCc1ccc(NN)c(I)c1
  16.6% | 16.5%
> O=C(NC1CCCCC1)c1cccc(Oc2ccccc2)c1
  -19.8% | 69.9%[activator]
> CCOc1cc(/C=C2/NC(=O)NC2=O)cc(Br)c1OC(C)C
  8.5% | 2.4%
> O=C(NCCCN1CCCC1)c1ccncc1
  7.5% | -1.0%
> CCc1nnc(NC(=O)Nc2cccc(Cl)c2)s1
  9.5% | 203.8%[activator]
> CSc1ccc(CCNC(=O)C(C)n2c(C)c3cnn(-c4ccccc4)c(=O)c3c2C)cc1 (centres undefined)
  -8.4% | -11.6%
> CCCCOc1ccc(CNC(=O)C2CCN(c3nnc(-n4cccc4CNc4ccc(C)cc4)s3)CC2)cc1
  ? | 17.5%
> CCCCn1c(O)c(C2=Nc3ccccc3SC(c3cccc(O)c3)C2)c(=O)[nH]c1=O (centres undefined)
  -12.4% | -5.0%
> Cn1c(C(=O)N2CCc3ccccc3C2)cc2ccccc21
  24.1% | 162.8%[activator]
> O=C1C(=O)N(Cc2cccnc2)C(c2ccccn2)/C1=C(\O)c1ccccc1 (centres undefined)
  14.3% | 26.1%
> Cc1onc(-c2ccc(Br)cc2)c1C(=O)Nc1ccc(Br)cc1F
  -13.3% | 84.4%[activator]
> Cc1cccc(C(c2sc3nc(-c4ccco4)nn3c2O)N2CCN(c3ccccc3F)CC2)c1 (centres undefined)
  -3.6% | -0.9%
> Cc1ccc2[nH]cc(C(C(=O)O)N3CCN(S(=O)(=O)c4ccccc4)CC3)c2c1 (centres undefined)
  -5.7% | -1.9%
> Cc1ccc(-n2ncc(C(=O)NCc3cccs3)c2C2CCN(C(=O)OC(C)(C)C)CC2)cc1
  59.3%[activator] | -15.9%
> COCC(C)NC(=O)Cc1n[nH]c(=O)c2ccccc12 (centres undefined)
  0.1% | 10.7%

Screening data (PubChem BioAssay)
